# Assay outcomes: PubChem, Southern Research Institute
# Mtb H37Rv: Mycobacterium tuberculosis H37Rv growth inhibition, cell based, confirmatory dose response (AID 1949) | hit rate 1.6% among 100,000 | one-dose inhibition, % at 10 µg/mL; IC50 in µg/mL for titrated hits | most inactive calls were filed without a number and no value below 0 was filed;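 active = confirmed in a dose series; inconclusive = about 50% or more but not retested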;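 note: bacteria grown 7 days with compound before Alamar blue readout; 0% = untreated bacteria and 100% = reference antibiotic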
# An asterisk follows results filed as active; i = inactive; u = inconclusive. This is a subset; the hit share may differ from the screen's.
SMILES,Mtb H37Rv
Cc1onc(-c2ccccc2Cl)c1C(=O)Nc1sc(C)c(C)c1C(N)=O,i
CC(C)CCNC(=O)C(=O)NC(C)c1ccccc1 (stereo not given),i
Cc1cc(C(=O)NNC(=S)NC2CCCC2)c2cccc(C)c2n1,1%
COC(=O)c1sc2cc(NC(=S)N3CCN(S(C)(=O)=O)CC3)ccc2c1Cl,1%
COC(=O)C1=CN(c2ccc(C(=O)OC)cc2)C=C(C(=O)OC)C1c1ccccc1OC,i
CC1CCN(C2CCN(Cc3ccccc3F)CC2)CC1,i
COCCNC(=S)Nc1cccc(C(F)(F)F)c1,i
Cc1cccc(C(=O)N2CCN(c3cccc(C(F)(F)F)c3)CC2)c1[N+](=O)[O-],1%
CCOC(=O)C1=C(C)NC(=O)NC1c1ccc(OC)c(CN2CCOCC2)c1 (stereo not given),i
O=C(CN(Cc1ccc(F)cc1)S(=O)(=O)c1ccc(Cl)cc1)NC1CCCC1,i
Cc1nc2ccccc2nc1OCc1ccc(Br)cc1,i
COC(=O)C(CC(C)C)N1C(=O)c2cc(Cl)c(Cl)cc2C1=O (stereo not given),i
NC(=O)COc1ccc(S(=O)(=O)NCc2ccccc2)cc1,i
O=C(Nc1cccnc1)c1cc(S(=O)(=O)N2CCCCC2)ccc1Cl,i
CCCc1nnc(NC(=O)CN2CCN(C)CC2)s1,3%
O=C(C(c1ccccc1)c1ccccc1)N1CCc2ccccc21,i
Cc1cc(C)cc(C(=O)NN2CCOCC2)c1,i
COc1cccc(NC(=O)C(=O)NCc2ccc(F)cc2)c1,i
O=C(CN1C(=O)c2ccccc2S1(=O)=O)NC1CC2CCC1C2 (stereo not given),i
CC(=O)N(Cc1ccccc1)Cc1cn(CCC#N)nc1-c1cccc([N+](=O)[O-])c1,i
Oc1ccc(Br)c2c1NC(c1ccc(Cl)cc1)C1CC=CC21 (stereo not given),23%
O=C(c1cccc(Cl)c1)N1CCN(c2ccc(Cl)cc2)CC1,i
Cc1ccc(S(=O)(=O)NC(=O)c2cccc3ccccc23)cc1,i
COc1ccc(Br)cc1C(=O)NC1C2CC3CC(C2)CC1C3 (stereo not given),4%
CCOc1ccc(NCc2ccccc2OCc2cccc(F)c2)cc1,i

# Sorted by count of non-hydrogen atoms (low to high): 8 of the compounds above
SMILES,Mtb H37Rv
COCCNC(=S)Nc1cccc(C(F)(F)F)c1,i
CCCc1nnc(NC(=O)CN2CCN(C)CC2)s1,3%
CC1CCN(C2CCN(Cc3ccccc3F)CC2)CC1,i
NC(=O)COc1ccc(S(=O)(=O)NCc2ccccc2)cc1,i
Cc1ccc(S(=O)(=O)NC(=O)c2cccc3ccccc23)cc1,i
O=C(C(c1ccccc1)c1ccccc1)N1CCc2ccccc21,i
O=C(CN(Cc1ccc(F)cc1)S(=O)(=O)c1ccc(Cl)cc1)NC1CCCC1,i
CC(=O)N(Cc1ccccc1)Cc1cn(CCC#N)nc1-c1cccc([N+](=O)[O-])c1,i

# Next records follow.
SMILES,Mtb H37Rv
Oc1c(Cl)cc(NC(=S)NCCc2ccccc2)cc1Cl,i
CCC1CCCCN1C(=O)c1cc2cc(OC)ccc2oc1=O (stereo not given),0%
Cc1ccc(NC(=O)C(C)Oc2cccc(C)c2C)cc1C (stereo not given),i
Cc1cc(O)cc(O)c1/C=N/NC(=O)/C(=C\c1ccc2c(c1)OCO2)NC(=O)c1ccccc1,i
CC(=O)c1cccc(OCc2c(F)cccc2Cl)c1,5%
COC(=O)c1cc(OC)c(OC)cc1NC(=O)c1ccc(C)c(Cl)c1,i
Cc1ccc(C)c(OCC(=O)Nc2ccc(-c3nc4ccccc4o3)cc2)c1,2%
CCNc1cc(N2CCN(C(=O)c3ccccc3F)CC2)ccc1[N+](=O)[O-],2%
Fc1ccc(N2CCN(C(=S)NC3CCCC3)CC2)cc1,0%
COC(=O)C1=CNC=C(C(=O)OC)C1c1cc(OC)c(OC)cc1OC,i
COc1cc(NC(=O)Nc2ccc(F)cc2F)c(OC)cc1Cl,0%
CCOC(=O)c1c(C)oc2ccc(OC)cc12,i
CC12CCC(C(=O)N3CCc4ccccc43)(CC1=O)C2(C)C (stereo not given),i
COc1ccc(NC(=O)CSc2ccc(Cl)cc2)cc1OC,35%
O=C(CCc1ccc(S(=O)(=O)NCc2ccccc2)cc1)Nc1ccc2c(c1)OCCO2,i
CCOC(=O)CCc1c(C)c2cc(Cl)c(OCc3ccccc3C)cc2oc1=O,i
CCS(=O)(=O)N1CCN(c2ccc([N+](=O)[O-])c(N3CCCC3)c2)CC1,i
Cn1ccnc1SCC(=O)NCc1cc(C(=O)c2ccccc2)ccc1O,i
CCCOc1cccc(C(=O)NC23CC4CC(CC(C4)C2)C3)c1,i
COc1ccc(CNC(=S)Nc2cc(C)cc(C)c2)cc1,i
Cc1ccc2nc(-c3ccc(N)cc3)[nH]c2c1,i
COCC(C)NC(=O)c1ccc(C(C)(C)C)cc1 (stereo not given),i
O=C(CSc1nc2sc3c(c2c(=O)[nH]1)CCC3)NCCCO,i
COc1ccc(OC)c(-n2c(-c3cnccn3)n[nH]c2=S)c1,i
CC1=C(C(=O)OCc2ccccc2)C(c2c(Cl)cccc2Cl)NC(=O)N1 (stereo not given),i

# Next entries
SMILES,Mtb H37Rv
O=C1C2C3C=CC(C3)C2C(=O)N1/N=C/c1ccc2c(c1)OCO2 (stereo not given),3%
CCN(CC)S(=O)(=O)c1cccc(C(=O)Nc2nccs2)c1,i
COc1ccc(S(=O)(=O)Nc2ccc3oc(C)c(C(=O)O)c3c2)cc1,0%
COc1ccc(Nc2ncnc(N)c2[N+](=O)[O-])cc1Cl,i
COc1ccccc1CNC(=O)CCC1CCCCC1,6%
CNCCCOc1ccc(Cl)cc1C(C)(C)C,8µg/mL*
COc1ccccc1NC(=O)CN(c1ccc(OC)c(OC)c1)S(C)(=O)=O,i
Cc1ccccc1-c1nc2sc(C)c(C)c2c(=O)o1,i
COc1cc([N+](=O)[O-])ccc1NC(=O)c1cc2ccccc2oc1=O,i
COc1nc2ccc(C)cc2cc1-c1noc(-c2ccncc2)n1,i
NC(=O)c1c(NC(=O)C2CC(=O)OC23CCCCC3)sc2c1CCCCC2 (stereo not given),i
CC(C)(C)c1ccc(OCc2ccc(C(=O)NCc3cccnc3)o2)cc1,i
COc1ccc(-c2nc3cccc(C)c3c(=O)o2)cc1,i
Nc1c(C(=O)Nc2ccc(F)cc2)sc2nc3c(cc12)CCCC3,i
Cc1cc(Cl)cc(C)c1OCCOCCNCc1ccccc1,u
COCCCNCCCCOc1c(Cl)cc(C)cc1Br,i
Cc1cc(OCC(=O)N2CCN(c3ccc(F)cc3)CC2)ccc1Cl,0%
CCOC(=O)C1=C(N)Oc2c(c(=O)[nH]c3ccc(C)cc23)C1c1ccccc1 (stereo not given),i
COC(=O)c1c(NC(=O)C(C)Oc2cccc(C)c2C)sc(C(C)=O)c1C (stereo not given),i
O=C(Nc1cccc(C(=O)Nc2nnc(Cc3ccc(Cl)cc3)s2)c1)c1ccccc1,i
COCCn1c(SCC(=O)Nc2cccc(C(F)(F)F)c2)nnc1-c1ccccc1,i
CC(C)(C)NC(=O)N1CCC(C(N)=O)CC1,i
COC(=O)c1ccc(NC(=O)N(c2ccccc2)c2ccccc2)cc1,i
COc1ccc(OC)c(S(=O)(=O)Nc2cccc(C(=O)O)c2)c1,i
COc1cc(Nc2nc(-c3cccc([N+](=O)[O-])c3)cs2)c(OC)cc1Cl,i

# The list goes on; it opens with the 8 that closed the last part.
SMILES,Mtb H37Rv
CCOC(=O)C1=C(N)Oc2c(c(=O)[nH]c3ccc(C)cc23)C1c1ccccc1 (stereo not given),i
COC(=O)c1c(NC(=O)C(C)Oc2cccc(C)c2C)sc(C(C)=O)c1C (stereo not given),i
O=C(Nc1cccc(C(=O)Nc2nnc(Cc3ccc(Cl)cc3)s2)c1)c1ccccc1,i
COCCn1c(SCC(=O)Nc2cccc(C(F)(F)F)c2)nnc1-c1ccccc1,i
CC(C)(C)NC(=O)N1CCC(C(N)=O)CC1,i
COC(=O)c1ccc(NC(=O)N(c2ccccc2)c2ccccc2)cc1,i
COc1ccc(OC)c(S(=O)(=O)Nc2cccc(C(=O)O)c2)c1,i
COc1cc(Nc2nc(-c3cccc([N+](=O)[O-])c3)cs2)c(OC)cc1Cl,i
Cc1cccc(/C(N)=N/OC(=O)c2cccs2)c1,42%
Cc1ccc(C(=O)CC2(O)C(=O)N(Cc3cccc4ccccc34)c3ccccc32)o1 (stereo not given),4%
C=CCn1c(-c2sc(N)nc2C)n[nH]c1=S,i
CCSc1nnc(NC(=O)CSc2nc(-c3cccc(OC)c3)c(C#N)c(=O)[nH]2)s1,i
C=CCOc1ccc(NC(=O)C(=O)NCCCn2ccnc2)cc1,i
O=C(OCC1CC1)c1sc2ccccc2c1Cl,14%
CC(=O)c1cccc(NC(=O)NNC(=O)c2ccccc2Br)c1,i
CC(C)OC(=O)c1c(NC(=O)c2ccco2)sc2c1CCC2,i
Cc1cccc(C(=O)N(CCCCN2C(=O)c3ccccc3C2=O)c2ccc(Cl)cc2)c1,i
Cc1cccc(OCC(=O)NCCN2CCOCC2)c1,i
COc1cc(Cl)c(S(=O)(=O)N2CCC(C(N)=O)CC2)cc1Cl,i
Cc1cccc(NC(=O)CN(CCc2ccccc2)S(=O)(=O)c2cc(Cl)ccc2Cl)c1C,i
N/C(=N\OC(=O)N1CCOCC1)c1cccnc1,i
CCC(C)Sc1nc2ccccc2n1CC(N)=O (stereo not given),i
CCC(C)c1ccc(OCC(=O)Nc2ccc([N+](=O)[O-])cc2OC)cc1 (stereo not given),1%
O=C(Nc1cc(C(F)(F)F)ccc1Cl)C1CCC(N2C(=O)C3C4C=CC(C5CC45)C3C2=O)CC1 (stereo not given),i
NC(=O)c1ccc(N2CCOCC2)nc1,i
Cc1ccccc1NC(=O)CSc1nnc2n(CCc3ccccc3)c(=O)c3c4c(sc3n12)CCCC4,34%
CC(=O)Nc1cccc(NC(=O)c2cc(C)c(-c3ccccc3)s2)c1,37%
Cc1ccc(S(=O)(=O)N(C)CC(=O)Nc2ccc(C(F)(F)F)cc2)cc1,i
COc1ccc(C(=O)NCCc2cccc(Cl)c2)c(OC)c1,2%
CC(=O)N1CCN(c2ccc(NC(=O)c3ccc(C)cc3C)cc2)CC1,i
Clc1ccc(CN2CCN(c3ncnc4sc5c(c34)CCC5)CC2)c(Cl)c1,10%
CCSc1ccc(NC(=O)c2ccccc2Br)cc1,1%
COc1ccc(-c2cc(C(F)(F)F)nc(S(=O)(=O)CCC(=O)Nc3ccc(C)cc3)n2)cc1,i

# More results follow.
SMILES,Mtb H37Rv
Cc1c(C(=O)NC(=S)Nc2ccc3oc(-c4cccc(F)c4)nc3c2)cccc1[N+](=O)[O-],i
Nc1nc(SCC(=O)N2CCc3ccccc32)[nH]c(=O)c1-c1ccccc1,i
CS(=O)(=O)N(Cc1ccc(C(=O)Nc2ccc(F)c(F)c2)cc1)c1ccccc1,i
CCOc1ccccc1NC(=O)CCCOc1cc(C)ccc1C,i
O=C(NCCc1ccc(Cl)cc1)C1CCCO1 (stereo not given),i
Cc1cc(NC(=O)CC23CC4CC(CC(C4)C2)C3)ccc1NC(=O)c1ccccc1,3%
CCOc1cc(C2C(C(=O)OC)=C(C)NC3=C2C(=O)CCC3)cc(Br)c1OC (stereo not given),i
O=C(Nc1ccc(N2CCOCC2)cc1)Nc1ccc2nsnc2c1,3%
CN1C(=O)c2ccc(C(=O)NCc3ccccc3)cc2C1=O,0%
CCOc1ccc(NC(=O)CSc2nnc(COc3cc(C)ccc3C(C)C)n2C)cc1,i
CC1CCc2c(sc(NC(=S)NC(=O)c3ccc4c(c3)OCCO4)c2C(N)=O)C1 (stereo not given),i
COc1ccc(C(=O)Nc2ccc(NC(=O)c3cc4ccccc4o3)c(C)c2)cc1,i
Cc1csc(NC(=O)CSc2nnc(-c3cccnc3)o2)n1,26%
CC(C)(C)c1cc(Br)ccc1OCC(=O)Nc1ccc(S(N)(=O)=O)cc1,i
Cc1ccc(NC(=O)N2CCc3ccccc3C2)cc1,3%
COc1ccc(N(C(=O)c2ccccc2)S(=O)(=O)c2cccs2)cc1,i
COc1cccc(OCC(=O)Nc2ccc(OC)c(OC)c2)c1,i
CC1=NN(c2ccc(S(N)(=O)=O)cc2)C(=O)/C1=C\c1ccc(-c2ccc(C(=O)OC(C)C)cc2)o1,27%
Oc1c(C(Nc2ccccn2)c2ccc(Cl)cc2)ccc2cccnc12 (stereo not given),i
COc1cccc(OC)c1C(=O)Nc1ccc(N2CCOCC2)cc1,1%
Oc1ccccc1C1=NCCNC(C(F)(F)F)=C1,i
COc1cc(OC)c(NC(=O)c2ccccc2F)cc1Cl,1%
CSc1ccccc1NC(=O)CSc1nnnn1-c1ccccc1F,i
CCCc1cc(=O)[nH]c(SCC(=O)Nc2nc3c(C)cccc3s2)n1,i
CCOc1ccc(NC(=O)Nc2ccc(OC(F)(F)F)cc2)cc1,i

# Further records
SMILES,Mtb H37Rv
COc1ccc(-c2noc(CC3CCCCC3)n2)cc1,i
COc1ccc(S(=O)(=O)N(C)CC(=O)Nc2cccc(C(C)=O)c2)cc1,i
CCCOc1cccc(C(=O)NC(=S)Nc2ccccc2N2CCCCC2)c1,8%
CCc1ccc(CCC(=O)Nc2ncc(Cc3ccc(F)cc3)s2)o1,i
O=C1CCCC2=C1C(c1cccc(OCc3ccc(Cl)c(Cl)c3)c1)C1=C(CCCC1=O)N2,2%
CN(C)CCC(=O)C12CC3CC(CC(C3)C1)C2,i
COc1ccc(NC(=O)C2CC(=O)N=C(N)S2)cc1 (stereo not given),0%
CCCCc1ccc(NC(=O)CN(C)S(=O)(=O)c2ccc(OC)c(C)c2)cc1,4%
CC1=C(C#N)C(Nc2ccc(C)cn2)(C(F)(F)F)C(=O)N1 (stereo not given),i
Cc1cc(C(C)(C)C)ccc1OCCCN1CCCC1,i

# Random excerpt: 2 compounds from above, in no set order.
SMILES,Mtb H37Rv
CC(C)(C)c1cc(Br)ccc1OCC(=O)Nc1ccc(S(N)(=O)=O)cc1,i
CC1=C(C#N)C(Nc2ccc(C)cn2)(C(F)(F)F)C(=O)N1 (stereo not given),i
